# ClpP mod: qHTS Assay for Activators of ClpP; ATP-dependent Clp protease proteolytic subunit (Bacillus subtilis (strain 168)), P80244; AID 651965, 2013; Potency, µM (doses to about 57.5 µM), for inactives: at the top dose activity change, negative = active; actives 1.9% (n = 340,000); purified B. subtilis ClpP, FRET peptide cleavage, 20 min; active = well fitted falling curve with a large enough effect; inconclusive = small, poorly fitted or top-dose-only effect; inactive = no such curve, though single readings can be large or run the other way; note: potency is the fitted concentration of half-maximal effect; the source files actives as falling curves though it sought activators and does not explain the sign; nearly all actives have a fitted effect of over 65% in size; many hits overshoot -100%
# Target sequence (P80244 whole entry, looked up): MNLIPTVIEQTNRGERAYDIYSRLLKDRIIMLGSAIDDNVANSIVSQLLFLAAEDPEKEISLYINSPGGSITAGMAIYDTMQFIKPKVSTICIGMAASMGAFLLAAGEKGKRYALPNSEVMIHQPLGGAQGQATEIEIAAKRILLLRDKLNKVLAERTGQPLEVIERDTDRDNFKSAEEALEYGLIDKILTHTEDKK
#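 Purified B. subtilis ClpP, 10 microg/mL final in Tris/HCl pH8 with KCl, BSA, glycerol and Tween-20, cleaved an Abz/nitrotyrosine-quenched decapeptide. Fluorescence (ex 320, em 430) was read at 0 and 20 min at room temperature. Delta was normalized to 5.8 microM ADEP and DMSO/no-enzyme controls.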
# TRPV1 PAM: potentiators of human vanilloid receptor 1 (TRPV1) | actives 0.02% (n = 320,000) | TRPV1-expressing cells, Fluo-8 calcium influx, capsaicin EC20 potentiation; host cell line not named in the record; control for the full effect not named in the record | potentiation, % at 8.33 µM | Q8NER1; active means potentiation above 80%; inconclusive means 30% to 80%; inactive means below 30%; note: 0% is about no effect
# Target sequence (Q8NER1 whole entry, looked up): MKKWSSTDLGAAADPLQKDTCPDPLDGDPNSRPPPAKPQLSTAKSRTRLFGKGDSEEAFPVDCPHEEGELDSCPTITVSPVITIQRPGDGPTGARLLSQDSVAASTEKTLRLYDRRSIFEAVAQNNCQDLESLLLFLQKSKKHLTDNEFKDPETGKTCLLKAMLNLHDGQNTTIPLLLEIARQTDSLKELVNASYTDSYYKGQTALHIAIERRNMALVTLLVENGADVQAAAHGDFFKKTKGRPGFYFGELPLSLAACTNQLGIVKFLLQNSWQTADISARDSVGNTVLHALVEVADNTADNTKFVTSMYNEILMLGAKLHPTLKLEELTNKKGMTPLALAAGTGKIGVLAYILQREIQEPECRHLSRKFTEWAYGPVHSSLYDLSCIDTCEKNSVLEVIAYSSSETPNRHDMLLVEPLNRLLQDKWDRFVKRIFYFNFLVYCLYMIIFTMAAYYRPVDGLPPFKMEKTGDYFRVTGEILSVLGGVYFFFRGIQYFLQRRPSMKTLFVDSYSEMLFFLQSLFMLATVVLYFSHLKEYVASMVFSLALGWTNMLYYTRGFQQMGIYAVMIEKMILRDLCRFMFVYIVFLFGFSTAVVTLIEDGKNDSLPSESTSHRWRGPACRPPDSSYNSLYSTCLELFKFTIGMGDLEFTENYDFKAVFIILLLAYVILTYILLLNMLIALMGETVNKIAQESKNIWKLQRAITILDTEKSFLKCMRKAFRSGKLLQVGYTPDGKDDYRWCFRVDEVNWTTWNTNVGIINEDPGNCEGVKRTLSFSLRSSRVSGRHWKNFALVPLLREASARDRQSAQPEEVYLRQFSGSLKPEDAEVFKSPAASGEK
#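 Fluo-8 calcium influx in TRPV1-expressing cells, kinetic read (ex 480/em 520 nm). Compound added and read 3 min for agonist activity, followed by capsaicin at EC20 final and 2 min further read for enhancement.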
# Sfp PPTase inh: blocks B. subtilis Sfp PPTase activity | Q9F4F7 | Biochemical Sfp PPTase activity, qHTS | Potency, µM, for the others: max response, negative = inhibition, usual class: inhibitors | actives 3.5% (n = 310,000); active = well fitted inhibition curve with a large enough effect; inconclusive = small, poorly fitted or top-dose-only effect, or another doubt; inactive = no such curve, though single readings can be large or run the other way;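 note: the enzyme is Sfp with the accession as filed and its product quenches rhodamine fluorescence; potency is the fitted concentration of half-maximal effect; 0% = enzyme reaction without inhibitor and -100% = no enzyme wells; top concentration of the series not given in the record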
#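 Sfp 15 nM + cpd, 15 min RT; start w/ rhodamine-CoA 5 uM, BHQ-2-YbbR 12.5 uM (final); 50 mM Hepes pH 7.6, 10 mM MgCl2, 0.01% NP-40, 0.01% BSA; read 525/598 nm at 0 and 30 min.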
# gsp ag: gsp mutant agonism. gsp mutant cells, cAMP HTRF, 30 min; control for the full effect not named in the record. Potency, µM (titrated, usually from 76.9 µM), inactives show top-dose activation (cAMP increase), usual class: activators. actives 0.13% (n = 340,000). AID 624287; active = well fitted activation curve with a large enough effect; inconclusive = small, poorly fitted or top-dose-only effect, or another doubt; inactive = no such curve, though single readings can be large or run the other way; cell line not stated here;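 note: phosphodiesterase inhibitor Ro 20-1724 added with compounds to block cAMP breakdown; potency is the fitted concentration of half-maximal effect; nearly all actives have a fitted effect of over 60% in size; about a fifth of the inactives were tested at one dose only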
#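 Cells stably selected in G418 were plated at 2000/well, grown 16-24 hr, then given compounds in DMSO with the PDE inhibitor […] (300 uM solution added) for 30 min at 37C; cAMP was read by HTRF.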
# Menin-MLL FL inh: inhibitors of human menin-MLL interaction, wild-type MLL peptide. Fluorescence polarization, fluorescein-MLL peptide displacement from menin. AID 1766. FP activity change, % at 61.4 µM. 290,000 tested, under 10 active; inconclusive = falling polarisation curve, or a change in total fluorescence; inactive = total fluorescence flat and polarisation flat or rising; no compound was filed as active; the % refers to the polarisation; negative = inhibition;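 note: % of control where 0% means no effect; inhibitors lower the polarisation; unlabelled MLL peptide was the positive control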
# CtBP-E1A inh: inhibitors of CtBP/E1A interaction; AlphaScreen GST-E1A/His-CtBP binding, 1536-well; hits give low values; control for the full effect not named in the record; activity change, % (concentration not given with the values); actives 0.49% (n = 340,000); AID 651724; in the data active means activity change below about -65%; inconclusive means about -30% to -65%; inactive means above about -30%; note: % is set by controls: 0 for no effect and ±100 for the full control effect
#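 AlphaScreen with 125 nM GST-E1A and 125 nM His-CtBP (5X stocks) in Tris pH 8.0, 300 mM NaCl, BSA, Tween 20, TCEP. Compounds preincubated 2 h at 37 deg C, then glutathione donor/nickel acceptor beads added for 1 h at 37 deg C in dark.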
# gsp antagonist: antagonizes gsp, the McCune-Albright syndrome mutation | gsp-mutant cells, cAMP HTRF, 30 min; control for the full effect not named in the record | Potency, µM (highest dose often 76.9 µM), for inactives: top-dose activity change, negative = inhibition, hits mostly inhibitors | actives 0.4% (n = 340,000) | AID 624288; active = falling curve of any shape with a large fitted effect; inconclusive = falling curve, mostly with a smaller effect; inactive = flat or rising curve; cell line not stated here;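 note: intracellular cAMP measured with PDE inhibitor Ro 20-1724 present during compound exposure; potency is the fitted concentration of half-maximal effect; % is set by controls: 0 for no effect and ±100 for the full control effect; nearly all actives have a fitted effect of over 65% in size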
#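 HTRF cAMP read-out (cAMP-d2 plus anti-cAMP antibody-K in lysis buffer, 30 min RT). Before lysis, cells are exposed to compounds with […] for 30 min at 37C in DPBS containing Ca/Mg, BSA and Tween 20.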
# * marks the source's active call; other numbers are inactive results; ? = inconclusive; · = not tested or not shown; [ ] = dose if it differs, or a comment.
SMILES,ClpP mod,TRPV1 PAM,Sfp PPTase inh,gsp ag,Menin-MLL FL inh,CtBP-E1A inh,gsp antagonist
Nc1cc(=O)c2[nH]cnc2[nH]1,-1.9%,·,·,-41%[inhibitor],·,-13,·
Cc1c(C)n(CCCN(C)C)c2ncnc(Nc3ccc(F)cc3)c12,?,-10,2%,15%,-12,3,10%
CCCNC(=O)NC(=O)COC(=O)CNS(=O)(=O)/C=C/c1ccccc1,0.5%,4,20%,7%,-4.1,·,-16%
Cc1cccc(CCNC(=O)CN(C)S(=O)(=O)c2ccc3c(c2)c(=O)n(C)c(=O)n3C)c1,-8.3%,?,-1%,?,2.5,0,-11%
Nc1ncnc2nc(SCC(=O)Nc3cccc(C(F)(F)F)c3)[nH]c12,·,0,6%,6%,·,-1,-2%
Fc1cccc(Cl)c1CNCc1ccccc1Cl,-0.2%,8,9%,19%,2.2,23,9%
O=C(CCCn1cnc([N+](=O)[O-])n1)Nc1ccc(Cl)c(Cl)c1,-0.6%,-12,8%,?,3.0,3,-2%
CC(=O)C1=C(O)C(=O)N(c2cccnc2)C1c1ccc(Cl)cc1 (stereo not given),-3.2%,11,3%,9%,-0.8,8,20%
Cc1cc(NC(=O)CSc2nc3cc(Cl)ccc3c(=O)n2CC(C)C)no1,·,5,15%,·,5.1,·,·
CCOC(=O)N1CCN(c2c(N3CCN(c4cccc(C(F)(F)F)c4)CC3)c(=O)c2=O)CC1,0.3%,-2,5%,5%,-1.3,4,10%
Cc1cc(=O)oc2cc(OCC(=O)N3CCC(C(N)=O)CC3)ccc12,4.8%,5,12%,·,-2.8,2,2%
CCCn1nc(C(=O)NNC(=O)CSC(C)C(=O)Nc2cc(C)on2)c2ccccc2c1=O (stereo not given),-0.7%,-5,14%,-4%,·,2,-5%
Cc1ccc2c(COC(=O)c3c(C)noc3C)cc(=O)oc2c1,-6.5%,-4,14%,-8%[15.4 µM],-1.0,-17,-14%
CCCCCN(C(=O)CCC(=O)OC(C)C(=O)NC1CCCCC1)c1c(N)n(CCCC)c(=O)[nH]c1=O (stereo not given),-5.5%,6,·,-26%,·,-5,9%
CCS(=O)(=O)N1CCC(C(=O)NCc2cc(OC)ccc2OC)CC1,0.2%,2,2%,-15%,0.9,0,-4%
CCc1ccc(Cn2nnc(C(=O)NCc3ccccc3OC)c2N)cc1,-2.5%,·,20%,3%,6.0,0,4%
Cc1ccc(-n2ncc3c(=O)[nH]c(SCC(=O)N4CCCc5ccccc54)nc32)cc1,-0.6%,-12,21%,-32%[inhibitor],8.8,2,-12%
CSc1ccc(/C=C(/NC(=O)c2ccco2)C(=O)N2CCOCC2)cc1,?,-1,10%,7%,·,-2,-1%
O=C1NC(c2ccccc2)=C(c2ccc3ccccc3n2)C(c2ccc(F)cc2)N1 (stereo not given),-18%,1,-16%,-71%[inhibitor],2.9,·,-31%
CCCCSc1nnc(-c2ccc(NC(C)=O)cc2)n1C,-2.3%,1,8%,17%,5.5,-5,21%
CCCc1c(C(=O)NNc2cc(C(F)(F)F)ccc2Cl)cnn1-c1ccccc1,0.4%,-2,13%,8%[15.4 µM],3.3,1,2%
COCCCn1c(-c2ccsc2)nc2c1c(=O)[nH]c(=O)n2Cc1ccccc1,?,4,-5%,?,6.8,4,2%
COc1ccc(/C=N/NC(=O)CN(Cc2ccccc2)S(=O)(=O)c2ccc3c(c2)OCCO3)cc1,-2.5%,1,-2%,?,1.8,-4,-10%
OCCN(C=NC1=NN(c2cccc(C(F)(F)F)c2)CC1)CCO,-2.2%,-7,-12%,-51%[inhibitor],-0.5,-2,-11%
COCCNc1ccc(N2C(=O)CCCC2=O)cc1[N+](=O)[O-],·,6,23%,24%,-1.5,-8,7%
CCOC(=O)CN1C(=O)S/C(=C/c2ccc(O)c([N+](=O)[O-])c2)C1=O,·,20,-24%,12%[15.4 µM],3.0,-6,?
COc1cccc(NC(=O)CN(C)S(=O)(=O)c2ccc3c(c2)NC(=O)CS3)c1,0.3%,0,3%,-10%,·,·,-9%
COc1ccc(-c2nnc(OCc3nc4ccccc4n3C)c3ccccc23)cc1,-0.2%,6,3%,-4%[15.4 µM],3.0,-14,2%
COCCCNc1ncnc2c1cnn2-c1ccc(C)cc1C,-13%,-6,11%,-17%,1.7,7,-11%
Cc1noc(C)c1CSc1nc2sc3c(c2c(=O)n1C)CCCC3,0.9%,-6,7%,11%,-3.1,0,14%
Nn1c(SCC(=O)Nc2ccccc2)nnc1C1CCCCC1,-0.5%,10,·,-6%,·,7,2%
CC(=O)N1c2ccc(S(=O)(=O)N(C)C3CCCCC3)cc2CC1C (stereo not given),1.6%,-1,10%,19%,·,-1,-10%
COc1ccc(N2CCN(C(=O)C(=O)c3cn(CC(=O)N4CCOCC4)c4ccccc34)CC2)cc1,-2.6%,-26,1%,?,·,3,-4%
COc1cc(C)c(Br)cc1S(=O)(=O)N1CCOCC1,-0.3%,-12,11%,0%,4.1,-8,6%
O=C(CCCc1nc2ccccc2s1)NCc1ccccc1F,·,-19,19%,8%[15.4 µM],6.3,9,0%
O=C(c1ccc(F)cc1)N1CCN2C(=O)c3ccccc3C12c1ccccc1 (stereo not given),-1.0%,17,5%,13%[15.4 µM],-0.9,1,-2%
CCOCC(=O)Nc1ccc(S(=O)(=O)NCCc2ccccc2)cc1,?,10,11%,22%,1.8,6,-7%
CC(=O)N1CCN(Cc2nc3ccc(Cl)cc3n2CCO)CC1,·,4,5%,-38%[inhibitor],5.0,0,0%
COc1cc(OC)c2c(-c3cccc(-c4sccc4C(C)=O)c3)cc(=O)oc2c1,?,·,5%,·,-0.8,2,18%
NS(=O)(=O)c1ccc(CCNC(=O)c2ccc(NC3=NC4CS(=O)(=O)CC4S3)cc2)cc1 (stereo not given),·,-1,5%,9%,7.8,2,13%
c1nc2n(n1)C1=C(CCCC1)C1(CCCCC1)N2,10µM*,-3,23%,-8%[15.4 µM],2.4,4,8%
Cc1ccc(S(=O)(=O)NNC2=NS(=O)(=O)c3ccccc32)c(C)c1,·,-11,?,-46%[15.4 µM],-2.7,-28,11%
CN(C)c1ccc(N/C(N)=N/c2nc(C(F)(F)F)cc(C(F)(F)F)n2)cc1,-0.7%,-4,5%,-219%[inhibitor],-1.0,·,-4%
Cc1csc(Sc2nc3c(c(=O)[nH]c(=O)n3C)n2CCCc2ccccc2)n1,-0.7%,3,12%,-21%,1.8,6,6%
Cc1ccc(/C=N/NS(=O)(=O)c2ccccc2)o1,-0.5%,7,4%,-25%,6.7,8,5%
Nc1c(S(=O)(=O)c2cccs2)c2nc3ccccc3nc2n1Cc1cccs1,32µM*,12,5%,-25%,0.5,21,7%
CCOC(=O)C1=C(C)NC(=O)NC1c1c(OC)ccc2ccccc12 (stereo not given),·,-11,9%,-6%,-0.3,4,0%
C=CCc1cccc2cc(C(=O)NNC(=O)CC#N)c(=O)oc12,·,-2,13%,-14%[15.4 µM],9.8,6,1%
FC(F)(F)c1cccc(NC(=S)NCCc2ccccn2)c1,0.0%,7,-10%,-20%,3.7,-1,-9%
O=C1Cc2ccccc2C(c2ccc(Cl)cc2Cl)N1 (stereo not given),0.9%,7,21%,9%,5.0,0,-1%
Cc1ccnc(NCc2cc(C)ccc2O)c1,0.4%,-6,-9%,0%[15.4 µM],5.2,6,4%
CC(C)CN(C(=O)COC(=O)c1ccc(Cl)c(N)c1)c1c(N)n(Cc2ccccc2)c(=O)[nH]c1=O,-19%,3,·,0%,·,9,6%
NC(=O)C1CCN(C(=O)c2ccc3ncsc3c2)CC1,-0.5%,·,·,-43%[inhibitor],·,2,·
Cc1nn(-c2ccccc2)c(C)c1Cc1ccc(O)cc1,-1.0%,-4,11%,13%,0.0,2,-14%
Cc1ccc(C2c3c(oc4ccccc4c3=O)C(=O)N2c2nncs2)cc1 (stereo not given),·,?,19%,-17%[15.4 µM],0.8,6,-16%
COc1ccccc1N1CCN(Cc2ccc(O)c3ncccc23)CC1,-2.1%,6,-18%,-2%,1.5,-90*,4%
O=C(Nc1cc(=O)[nH]c2ncnn12)c1ccccc1,-1.0%,-4,5%,-31%[inhibitor],6.2,-5,-15%
COC(=O)CC1C(=O)NCCN1C(=S)NC(=O)CCc1ccccc1 (stereo not given),0.9%,11,5%,-196%[inhibitor],-9.4,7,11%
COc1ccc(CCN(C(=O)c2cccc(F)c2)C2CC(=O)N(c3ccccc3)C2=O)cc1 (stereo not given),-0.4%,6,7%,-56%[inhibitor],-0.2,-13,-13%
COc1ccc2c(c1)cc(C(=O)N[C@@H](CCSC)C(=O)N1CCC[C@H]1C(=O)O)n2C,4.7%,-3,9%,·,-6.6,-13,5%
# Next section:
SMILES,ClpP mod,TRPV1 PAM,Sfp PPTase inh,gsp ag,Menin-MLL FL inh,CtBP-E1A inh,gsp antagonist
COc1cc(C)ccc1OCCOc1ccccc1Cl,1.3%,11,14%,-6%,4.2,54,-1%
CCc1ccc(C2=NN(CCC(=O)NC(C)CCc3ccccc3)C(=O)CC2)cc1 (stereo not given),·,28,1%,5%[15.4 µM],-8.4,-2,-2%
O=C(CCCc1ccccc1)NCCS(=O)(=O)N1CCN(c2ccccc2F)CC1,1.2%,-6,·,24%,·,-2,-11%
Cc1ccc(OCC(=O)NNC(=O)CCC(=O)Nc2ccc(C)cc2C)cc1,1.8%,15,3%,3%,3.0,11,6%
Cc1cc(N2CCCC(C(=O)Nc3cccc(Cl)c3)C2)n2ncnc2n1 (stereo not given),1.7%,-18,1%,0%[15.4 µM],1.3,-1,10%
CCCCCC(=C/c1ccccc1)/C=N/Nc1ccc(S(=O)(=O)N2CCOCC2)cc1[N+](=O)[O-],·,·,·,-4%,·,-6,3%
CCCc1nnc(SCC(=O)Nc2nnc(CC)s2)n1CC1CCCO1 (stereo not given),·,-1,3%,4%[15.4 µM],0.2,-1,1%
